Ran importin: inhibitors of Ran–importin-beta complex formation, primary screen, biochemical, CFP-Ran/YFP-importin-beta FRET, RCC1, cell-free (AID 434961); CFP-Ran/YFP-importin-beta FRET, cell-free; stronger effect = higher value; Regulator of chromosome condensation (Homo sapiens) + GTP-binding nuclear protein Ran …; inhibition, %; 0.2% of 7,700 active;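 active means more than half of the replicate wells above 15% inhibition; inconclusive means exactly half above it; inactive means fewer than half above it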;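 further: 0% = DMSO wells and 100% inhibition = RanGDP control wells on each plate; stock of unstated strength diluted about 400-fold; mean of two wells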
The depositor's hits bear a star; ? = inconclusive. These rows are one share of the data; the hit share may differ from the screen's.

Ran importin	compound
0.1	C[C@@H]1CCCCO[C@@H](CN(C)C(=O)c2ccncc2)[C@@H](C)CN([C@@H](C)CO)C(=O)c2cc(NC(=O)CCC(F)(F)F)ccc2O1
1.1	Cc1noc(C)c1NC(=O)N(C)C[C@@H]1Oc2ccc(NC(=O)Cn3cnnn3)cc2C(=O)N([C@H](C)CO)C[C@H]1C
-5.0	Cc1noc(C)c1NC(=O)N(C)C[C@@H]1OCCCC[C@@H](C)Oc2ccc(NC(=O)CCC(F)(F)F)cc2C(=O)N([C@H](C)CO)C[C@H]1C
-3.3	Cc1noc(C)c1NC(=O)Nc1ccc2c(c1)C(=O)N([C@H](C)CO)C[C@H](C)[C@@H](CN(C)C(=O)NC1CCCCC1)O2
9.4	C[C@H]1CN([C@@H](C)CO)C(=O)Cc2cc(NC(=O)CCC(F)(F)F)ccc2O[C@H]1CN(C)C
-0.6	C[C@@H]1CCCCO[C@H](CN(C)C)[C@@H](C)CN([C@H](C)CO)C(=O)c2cc(NC(=O)CCC(F)(F)F)ccc2O1
-1.9	CC(C)NC(=O)Nc1ccc2c(c1)C(=O)N([C@@H](C)CO)C[C@@H](C)[C@@H](CN(C)C)OCCCC[C@@H](C)O2
1.1	C[C@H]1CCCCO[C@@H](CN(C)S(=O)(=O)c2ccccc2)[C@@H](C)CN([C@@H](C)CO)C(=O)c2cc(N(C)C)ccc2O1
2.2	C[C@@H]1CN([C@H](C)CO)C(=O)c2cccc(NS(=O)(=O)c3cccs3)c2O[C@H]1CN(C)Cc1ccc(-c2ccccc2)cc1
1.1	C[C@@H]1CN([C@H](C)CO)C(=O)Cc2cc(NC(=O)CCN3CCOCC3)ccc2O[C@H]1CN(C)Cc1ccncc1
4.5	C[C@H](CO)N1C[C@H](C)[C@H](CN(C)Cc2ccc(C(=O)O)cc2)Oc2c(cccc2N(C)C)C1=O
-1.3	C[C@H](CO)N1C[C@H](C)[C@@H](CN(C)CC2CC2)Oc2ccc(NS(=O)(=O)c3cccs3)cc2CC1=O
1.2	C[C@@H]1CCCCO[C@@H](CN(C)S(=O)(=O)c2ccccc2)[C@@H](C)CN([C@@H](C)CO)C(=O)c2cc(NS(C)(=O)=O)ccc2O1
1.7	C[C@@H]1CN([C@@H](C)CO)C(=O)Cc2cc(NC(=O)C3CC3)ccc2O[C@@H]1CN(C)S(=O)(=O)c1cn(C)cn1
0.4	C[C@@H]1CN([C@H](C)CO)C(=O)Cc2cc(N(C)C)ccc2O[C@H]1CN(C)S(=O)(=O)c1ccccc1
0.4	Cc1noc(C)c1S(=O)(=O)N(C)C[C@@H]1Oc2ccc(NS(=O)(=O)c3cccs3)cc2C(=O)N([C@@H](C)CO)C[C@@H]1C
4.8	C[C@H](CO)N1C[C@H](C)[C@@H](CN(C)Cc2ccccc2)Oc2ccc(NS(C)(=O)=O)cc2C1=O
-7.9	COc1ccc(CN(C)C[C@@H]2OCCCC[C@H](C)Oc3ccc(NC(=O)Nc4c(C)noc4C)cc3C(=O)N([C@@H](C)CO)C[C@@H]2C)cc1
-0.4	C[C@@H]1CCCCO[C@H](CN(C)C(=O)Nc2ccccc2)[C@@H](C)CN([C@@H](C)CO)C(=O)c2cc(NC(=O)C3CCCCC3)ccc2O1
4.5	COc1ccc(S(=O)(=O)N(C)C[C@@H]2Oc3c(NC(=O)Nc4cccc5ccccc45)cccc3C(=O)N([C@H](C)CO)C[C@@H]2C)cc1
-1.4	Cc1noc(C)c1S(=O)(=O)Nc1cccc2c1O[C@H](CN(C)Cc1ccc(Cl)c(Cl)c1)[C@H](C)CN([C@@H](C)CO)C2=O
1.7	C[C@@H]1CN([C@@H](C)CO)C(=O)c2cc(NC(=O)C3CC3)ccc2O[C@H]1CN(C)S(=O)(=O)c1ccc(F)cc1
0.2	C[C@@H]1CN([C@H](C)CO)C(=O)c2cccc(NS(=O)(=O)c3cn(C)cn3)c2O[C@@H]1CN(C)Cc1ccc(C(F)(F)F)cc1
-0.9	COc1ccc(S(=O)(=O)Nc2ccc3c(c2)C(=O)N([C@@H](C)CO)C[C@@H](C)[C@@H](CN(C)CC2CC2)O3)cc1
-1.7	COc1ccc(CN(C)C[C@H]2Oc3c(NC(=O)C4CCOCC4)cccc3C(=O)N([C@@H](C)CO)C[C@@H]2C)cc1
7.8	C[C@@H]1CN([C@H](C)CO)C(=O)c2cc(NS(=O)(=O)c3ccccc3)ccc2O[C@H]1CN(C)C(=O)Nc1ccc2c(c1)OCO2
1.7	C[C@H]1CN([C@@H](C)CO)C(=O)c2cc(NC(=O)Nc3ccc4c(c3)OCO4)ccc2O[C@@H]1CN(C)Cc1ccc(C(F)(F)F)cc1
-2.9	C[C@H](CO)N1C[C@H](C)[C@H](CN(C)C(=O)NC2CCCCC2)Oc2ccc(NC(=O)NC3CCCCC3)cc2C1=O
-1.9	C[C@H](CO)N1C[C@H](C)[C@H](CN(C)S(=O)(=O)c2ccccc2)Oc2ccc(NC(=O)NC3CCCCC3)cc2C1=O
4.6	Cc1noc(C)c1S(=O)(=O)N(C)C[C@H]1Oc2c(NC(=O)c3ccc(-c4nccs4)cc3)cccc2C(=O)N([C@@H](C)CO)C[C@H]1C

Quoted at random: 2 compounds from above, in no set order.
Ran importin	compound
4.5	COc1ccc(S(=O)(=O)N(C)C[C@@H]2Oc3c(NC(=O)Nc4cccc5ccccc45)cccc3C(=O)N([C@H](C)CO)C[C@@H]2C)cc1
-1.9	CC(C)NC(=O)Nc1ccc2c(c1)C(=O)N([C@@H](C)CO)C[C@@H](C)[C@@H](CN(C)C)OCCCC[C@@H](C)O2

(further entries)
Ran importin	compound
12	C[C@H](CO)N1C[C@H](C)[C@H](CN(C)CC2CC2)Oc2ccc(NC(=O)c3ccncc3)cc2CC1=O
5.7	C[C@@H]1CN([C@@H](C)CO)C(=O)Cc2cc(NS(=O)(=O)c3ccccc3)ccc2O[C@@H]1CN(C)Cc1ccc2c(c1)OCO2
3.4	Cc1noc(C)c1NC(=O)Nc1ccc2c(c1)C(=O)N([C@@H](C)CO)C[C@H](C)[C@@H](CN(C)C(=O)C1CCCCC1)OCCCC[C@@H](C)O2
5.3	COc1ccc(CN(C)C[C@H]2Oc3c(NS(C)(=O)=O)cccc3C(=O)N([C@@H](C)CO)C[C@H]2C)cc1
0.5	C[C@H]1CN([C@@H](C)CO)C(=O)c2cccc(NC(=O)Nc3ccc(C(F)(F)F)cc3)c2O[C@H]1CN(C)S(=O)(=O)c1cn(C)cn1
3.5	C[C@H]1CN([C@@H](C)CO)C(=O)c2cccc(NS(C)(=O)=O)c2O[C@H]1CN(C)C(=O)Nc1ccccc1
2.5	C[C@H]1CN([C@@H](C)CO)C(=O)c2cccc(NS(=O)(=O)c3ccccc3)c2O[C@@H]1CN(C)C(=O)Nc1ccccc1
2.0	C[C@@H]1CN([C@@H](C)CO)C(=O)Cc2cc(NS(=O)(=O)c3cccs3)ccc2O[C@@H]1CN(C)S(=O)(=O)c1ccccc1
1.4	C[C@@H]1CN([C@H](C)CO)C(=O)Cc2cc(NC(=O)Nc3ccc(F)cc3)ccc2O[C@@H]1CN(C)CC1CC1
?	Cc1ccc(S(=O)(=O)Nc2ccc3c(c2)CC(=O)N([C@@H](C)CO)C[C@H](C)[C@H](CN(C)C(=O)Nc2c(C)noc2C)O3)cc1
-3.0	C[C@H]1CCCCO[C@H](CN(C)S(=O)(=O)c2ccccc2)[C@@H](C)CN([C@@H](C)CO)C(=O)c2cc(N(C)C)ccc2O1
1.1	Cc1noc(C)c1NC(=O)N(C)C[C@H]1Oc2ccc(NC(=O)c3ccncc3)cc2CC(=O)N([C@H](C)CO)C[C@@H]1C
5.6	C[C@H](CO)N1C[C@H](C)[C@@H](CN(C)C(=O)Nc2cccc3ccccc23)Oc2ccc(NC(=O)Cn3cnnn3)cc2C1=O
-4.1	C[C@@H]1CCCCO[C@H](CN(C)S(=O)(=O)c2ccccc2)[C@@H](C)CN([C@@H](C)CO)C(=O)c2cc(N(C)C)ccc2O1
-0.4	C[C@H](CO)N1C[C@H](C)[C@@H](CN(C)S(=O)(=O)c2cccs2)Oc2ccc(NC(=O)NC3CCCCC3)cc2CC1=O
1.6	C[C@H](CO)N1C[C@H](C)[C@H](CN(C)S(=O)(=O)c2ccccc2)Oc2ccc(N(C)C)cc2CC1=O
-0.5	COc1ccc(S(=O)(=O)N(C)C[C@H]2Oc3c(NC(=O)c4ccncc4)cccc3C(=O)N([C@@H](C)CO)C[C@@H]2C)cc1
-13	C[C@H](CO)N1C[C@H](C)[C@@H](CN(C)C(=O)Nc2ccc3c(c2)OCO3)Oc2ccc(NC(=O)Nc3ccc4c(c3)OCO4)cc2C1=O
5.5	COc1ccc(S(=O)(=O)Nc2ccc3c(c2)CC(=O)N([C@H](C)CO)C[C@H](C)[C@H](CN(C)Cc2ccc(C(F)(F)F)cc2)O3)cc1
?	C[C@H]1CN([C@@H](C)CO)C(=O)Cc2cc(NS(=O)(=O)c3cccs3)ccc2O[C@@H]1CN(C)Cc1ccccc1
5.0	CNC[C@@H]1Oc2ccc(NC(=O)Nc3cccc4ccccc34)cc2CC(=O)N([C@H](C)CO)C[C@@H]1C
-4.1	C[C@@H]1CN([C@@H](C)CO)C(=O)CCCn2nncc2CO[C@@H]1CN(C)C(=O)Nc1ccc(N2CCN(C)CC2)cc1
-5.1	CNC[C@@H]1OCCCC[C@H](C)Oc2ccc(NS(=O)(=O)c3c(C)noc3C)cc2C(=O)N([C@H](C)CO)C[C@@H]1C
-3.6	C[C@@H]1CN([C@H](C)CO)C(=O)c2cc(NS(=O)(=O)c3ccccc3)ccc2O[C@@H](C)CCCCO[C@H]1CN(C)C(=O)c1ccccc1
-4.0	C[C@@H]1CN([C@@H](C)CO)C(=O)c2cc(NC(=O)Nc3ccc4c(c3)OCO4)ccc2O[C@@H]1CN(C)CC1CCCCC1
-2.2	COc1ccc(S(=O)(=O)N(C)C[C@@H]2Oc3ccc(NC(=O)Nc4c(C)noc4C)cc3C(=O)N([C@H](C)CO)C[C@H]2C)cc1
2.0	C[C@H]1CN([C@@H](C)CO)C(=O)Cc2cc(NC(=O)NC3CCCCC3)ccc2O[C@@H]1CN(C)Cc1ccc(C(=O)O)cc1
-6.0	Cc1ccc(OC(=O)N(C)C[C@@H]2OCc3cn(nn3)CCCC(=O)N([C@@H](C)CO)C[C@H]2C)cc1
1.6	C[C@H](CO)N1C[C@H](C)[C@H](CN(C)C(=O)Nc2ccccc2)Oc2ccc(NC(=O)Cc3ccccc3)cc2CC1=O
-3.5	Cc1noc(C)c1NC(=O)N(C)C[C@H]1OCCCC[C@@H](C)Oc2ccc(NS(=O)(=O)c3cn(C)cn3)cc2C(=O)N([C@H](C)CO)C[C@@H]1C

By substructure, those above containing a COOH group.
Ran importin	compound
4.5	C[C@H](CO)N1C[C@H](C)[C@H](CN(C)Cc2ccc(C(=O)O)cc2)Oc2c(cccc2N(C)C)C1=O
2.0	C[C@H]1CN([C@@H](C)CO)C(=O)Cc2cc(NC(=O)NC3CCCCC3)ccc2O[C@@H]1CN(C)Cc1ccc(C(=O)O)cc1

The list continues.
Ran importin	compound
0.5	CNC[C@@H]1OCCCC[C@H](C)Oc2ccc(NC(=O)CCC(F)(F)F)cc2C(=O)N([C@@H](C)CO)C[C@@H]1C
2.1	Cc1noc(C)c1NC(=O)N(C)C[C@@H]1OCCCC[C@H](C)Oc2ccc(NS(C)(=O)=O)cc2C(=O)N([C@H](C)CO)C[C@@H]1C
2.2	CNC[C@@H]1Oc2c(NC(=O)c3cc(C)nn3C)cccc2C(=O)N([C@H](C)CO)C[C@@H]1C
?	C[C@@H]1CN([C@@H](C)CO)C(=O)c2cccc(NS(=O)(=O)c3ccc(Cl)cc3)c2O[C@@H]1CN(C)C(=O)Nc1ccc(F)cc1
?	Cc1noc(C)c1S(=O)(=O)N(C)C[C@H]1Oc2ccc(NC(=O)Nc3ccccc3)cc2CC(=O)N([C@H](C)CO)C[C@H]1C
?	C[C@@H]1CN([C@H](C)CO)C(=O)c2cc(NS(=O)(=O)c3cccs3)ccc2O[C@H]1CN(C)C(=O)Nc1ccc(F)cc1
7.4	C[C@H](CO)N1C[C@H](C)[C@H](CN(C)C)Oc2ccc(NC(=O)CCC(F)(F)F)cc2CC1=O
4.1	C[C@H]1CN([C@@H](C)CO)C(=O)Cc2cc(NC(=O)Cc3ccccc3)ccc2O[C@H]1CN(C)CC1CC1
-2.1	C[C@H]1CCCCO[C@H](CN(C)S(=O)(=O)c2cccs2)[C@@H](C)CN([C@@H](C)CO)C(=O)c2cc(NS(C)(=O)=O)ccc2O1
0.3	C[C@H]1CN([C@@H](C)CO)C(=O)c2cccc(NC(=O)C3CCOCC3)c2O[C@H]1CN(C)Cc1ccc(C(F)(F)F)cc1
-1.6	C[C@H]1CN([C@@H](C)CO)C(=O)Cc2cc(NC(=O)CCC(F)(F)F)ccc2O[C@H]1CN(C)C(=O)Nc1ccccc1
3.7	C[C@H]1CN([C@@H](C)CO)C(=O)c2cccc(NC(=O)c3nc4ccccc4s3)c2O[C@H]1CN(C)S(=O)(=O)c1cccs1
-1.1	Cc1noc(C)c1S(=O)(=O)N(C)C[C@H]1Oc2ccc(NS(=O)(=O)c3cn(C)cn3)cc2CC(=O)N([C@@H](C)CO)C[C@H]1C
-1.6	CC(C)NC(=O)N(C)C[C@H]1Oc2ccc(NC(=O)CCN3CCOCC3)cc2CC(=O)N([C@@H](C)CO)C[C@@H]1C

An excerpt from above in order of the Ran importin value, ascending:
compound | Ran importin
Cc1noc(C)c1NC(=O)N(C)C[C@@H]1OCCCC[C@H](C)Oc2ccc(NS(C)(=O)=O)cc2C(=O)N([C@H](C)CO)C[C@@H]1C | 2.1
C[C@H]1CN([C@@H](C)CO)C(=O)Cc2cc(NC(=O)Cc3ccccc3)ccc2O[C@H]1CN(C)CC1CC1 | 4.1
C[C@H](CO)N1C[C@H](C)[C@H](CN(C)C)Oc2ccc(NC(=O)CCC(F)(F)F)cc2CC1=O | 7.4

Screening data (PubChem BioAssay)
